HSV replic up: HSV replication enhancement | HSV replication augmentation in cells, fold increase | hit rate 0.005% among 220,000 | maximum fold increase;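 active = peak rise of 1.5-fold or more in the series; tested in PC3 cells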;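 also: first round at 10 µM; read as green reporter fluorescence; hits show the peak of a series up to 25 µM; 1 = signal of infected wells without compound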
INS promoter inh: TRM-6 insulin promoter activity inhibition; TRM-6 cells (human fetal islet line), insulin promoter-eGFP reporter, imaging; reporter expression induced with tamoxifen; inhibition, % at 2 µM; hit rate 0.9% among 130,000; AID 1273;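 active = inhibition above the mean plus 3 SD, with well images judged a real hit on visual review, cut at about 60% in these data, passing the limit was not always enough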
PKD1 kinase inh: PKD1 (human) kinase inhibition | Q15139 | PKD1 kinase fluorescence polarization assay | inhibition, %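 (about 10 µM by stock and volumes)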 | hit rate 0.056% among 200,000;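 active = inhibition of 50% or more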;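 also: controls were vehicle for no effect and a reference inhibitor for full effect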
GALR2 ag: activates the human galanin receptor 2. O43603. GALR2-expressing cells, agonist activation read-out. activation, %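 (tested at 5 µM)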. hit rate 0.48% among 140,000. AID 803;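 active = above mean plus 3 SD of all compounds, about 5% in these data, not always enough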;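 also: 0% = vehicle buffer wells and 100% = reference agonist at full effect; tested in CHO reporter cells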
Target sequence (O43603 whole entry, looked up): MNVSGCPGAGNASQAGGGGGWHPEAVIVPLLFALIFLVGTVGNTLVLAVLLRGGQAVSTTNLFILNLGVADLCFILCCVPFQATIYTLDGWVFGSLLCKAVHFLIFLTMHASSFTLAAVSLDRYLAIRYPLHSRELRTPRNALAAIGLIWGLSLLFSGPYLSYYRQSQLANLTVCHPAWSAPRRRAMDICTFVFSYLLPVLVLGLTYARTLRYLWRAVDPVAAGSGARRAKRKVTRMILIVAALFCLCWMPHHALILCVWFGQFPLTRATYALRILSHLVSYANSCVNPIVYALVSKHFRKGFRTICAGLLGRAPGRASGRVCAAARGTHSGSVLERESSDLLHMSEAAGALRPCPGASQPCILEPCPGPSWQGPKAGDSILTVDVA
RGS16-Gao HTS: RGS16-Galphao interaction regulator (human) | O15492+P09471 | bead-based flow cytometry RGS16-Galphao binding, fluorescence; actives lie on both sides | binding response (% of control), % at 10 µM | hit rate 0.38% among 220,000;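 active = below 25% or above 175%, edge rows of some plates excepted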;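 also: Galphao activated by GDP with aluminum fluoride before binding; 100% = wells without compound and 0% = beads without RGS; some results beyond the cut were filed as inactive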
Target sequence (O15492 whole entry, looked up): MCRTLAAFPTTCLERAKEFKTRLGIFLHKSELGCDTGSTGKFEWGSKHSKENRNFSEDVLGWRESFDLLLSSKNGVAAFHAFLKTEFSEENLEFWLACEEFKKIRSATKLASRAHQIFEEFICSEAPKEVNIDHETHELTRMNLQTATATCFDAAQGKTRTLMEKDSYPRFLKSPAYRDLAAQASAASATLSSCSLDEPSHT
Target sequence (P09471 whole entry, looked up): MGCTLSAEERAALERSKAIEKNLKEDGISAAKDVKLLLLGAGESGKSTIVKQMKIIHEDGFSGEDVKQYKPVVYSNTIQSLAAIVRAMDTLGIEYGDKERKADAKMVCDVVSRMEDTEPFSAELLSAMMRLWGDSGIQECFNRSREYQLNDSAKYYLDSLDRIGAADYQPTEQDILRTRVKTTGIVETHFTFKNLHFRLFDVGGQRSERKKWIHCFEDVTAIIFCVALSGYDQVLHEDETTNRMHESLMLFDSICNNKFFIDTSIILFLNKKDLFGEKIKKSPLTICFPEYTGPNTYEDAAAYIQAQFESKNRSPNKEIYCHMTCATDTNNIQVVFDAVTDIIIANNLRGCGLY
INS promoter inh cell count: second read-out of INS promoter inh, no call of its own (marks repeat the call); normalized cell count, %; measured here: cell count, toxicity; reference of the scale not given here;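 cells exposed to compound for 48 h; stained nuclei by imaging scaled within each plate; lower means fewer cells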
HSV replic up primary fold: also measured in HSV replic up; calls as there; fold increase; compound at 10 µM; measured here: primary screen fold increase 10 uM; tested in PC3 cells;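 GFP signal in the first replicate; 1 = infected wells without compound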
Active calls of the source: *; i = inactive; nt = not tested or not shown.

SMILES	HSV replic up	HSV replic up primary fold	INS promoter inh	INS promoter inh cell count	PKD1 kinase inh	GALR2 ag	RGS16-Gao HTS
COc1ccc(/C=N/NC(N)=S)cc1OC(=O)c1cccc2ccccc12	i	0.83	-57	57	1	1.0	108
COc1ccc(OC)c(NC(=S)N(CCc2c(C)[nH]c3ccc(C)cc23)Cc2cccs2)c1	nt	nt	20	105	10	-1.4	59
COc1ccc(-n2c(=O)c3c4c(sc3n(CC(=O)NC3CCCC3)c2=O)CCCC4)c(OC)c1	i	0.92	nt	nt	1	nt	102
O=C(N/C(=C/C=C/c1ccccc1)C(=O)N1CCCCC1)c1ccc([N+](=O)[O-])cc1	i	0.93	-7	72	4	nt	132
CC(NC(=O)c1ccccc1F)c1nnc(SCC(=O)N2CCN(c3ccccc3)CC2)n1C (configuration not stated)	i	0.97	nt	nt	-7	nt	92
O=C(Nc1ccccc1)Nc1nc(-c2ccc(Cl)cc2)cs1	i	0.9	nt	nt	11	1.2	102
C=CCNC(=S)NNC(=O)c1ccc(=O)n(Cc2ccc(Cl)cc2Cl)c1	i	0.91	nt	nt	-1	nt	101
CCCCNCCOCCOc1ccccc1-c1ccccc1	nt	nt	-85	117	-12	-2.2	108
CCN(c1cccc(C)c1)S(=O)(=O)c1cccc(C(=O)O)c1	i	0.92	19	122	2	-2.7	106
CC1CCCCC1NC(=O)COC(=O)c1ccc2c(c1Cl)C(=O)c1ccccc1C2=O (configuration not stated)	i	0.88	-7	91	0	-1.4	108
CCCCN(C(=O)CSc1nnc(Nc2ccc(C)c(C)c2)s1)c1c(N)n(Cc2ccccc2)c(=O)[nH]c1=O	i	0.8	-60	75	1	-2.1	102
O=C(NCCCN1CCCC1)c1cccc(N2CCCC2=O)c1	i	1	-1	32	3	-1.1	1
O=C(Cc1nnc(NC(=O)c2ccccc2)s1)N/N=C/c1ccco1	i	1.2	nt	nt	-8	-0.7	104
CC1=C(C(=O)NC2CCC(C)CC2)C2(CCC(C)CC2)OC1=O (configuration not stated)	i	0.9	nt	nt	-12	-0.3	113
CCN(C(=O)c1cnc(NC(C)C)cc1C(F)(F)F)c1ccc(Cl)cc1Cl	i	1.1	nt	nt	nt	nt	101
Cc1ccc(OCC(=O)NNC(=O)CSc2ncc(C#N)c(N)n2)cc1	i	1.1	nt	nt	-10	-0.8	104
Cc1cc(C)c2c(N)c(C(=O)c3ccccc3)oc2n1	i	1.1	41	131	0	-0.7	104
O=C(NC(=S)Nc1ccccc1[N+](=O)[O-])c1ccco1	i	0.96	0	81	0	nt	98
CCC/C(O)=C1\C(=O)CC(c2ccccc2)CC1=NC (configuration not stated)	i	0.86	-60	101	2	-0.9	79
O=C(Nc1ccc(S(=O)(=O)N2CCOCC2)cc1)c1ccc([N+](=O)[O-])o1	i	0.54	nt	nt	nt	nt	102
Cc1c(NC(=O)C(C)n2cc([N+](=O)[O-])cn2)c(=O)n(-c2ccccc2)n1C (configuration not stated)	i	1	19	118	-2	nt	111
Cc1ccc(C(=O)NCCN2CCOCC2)cc1Cl	i	0.97	-42	62	-1	-2.6	196
CSc1sc(C)cc1C1C(C#N)=C(N)N(c2cccnc2)C2=C1C(=O)CC(C)(C)C2 (configuration not stated)	i	1	nt	nt	-3	-3.1	106
CCCCn1c(SCC(=O)Nc2nnc(CC)s2)nc2c1c(=O)n(C)c(=O)n2C	i	1.2	33	53	-23	-1.9	99
CCC1(c2ccc(Cl)cc2)NC(=S)N(c2ccc(C)c(C)c2)N1 (configuration not stated)	i	1.1	nt	nt	nt	nt	95
CC(=O)N1c2ccc(Cl)cc2C2C=CCC2C1c1cccc2ccccc12 (configuration not stated)	i	1.3	-13	89	-9	-1.3	104
O=C(COc1cccnc1[N+](=O)[O-])Nc1ccc(S(=O)(=O)N2CCOCC2)cc1	i	0.95	25	97	-1	nt	114
COC(=O)C(C(=O)OC)=C(/C=C/C=C/N(C)C)N(C)C	i	0.93	nt	nt	-6	-5.0	98
COc1ccc(C)cc1NC(=O)CN1CCN(S(=O)(=O)c2ccc(Cl)cc2)CC1	i	0.91	-17	91	-8	-0.7	98
CN(C)C(=O)c1c(NC(=O)c2ccco2)sc2c1CCCCC2	i	0.87	-243	71	3	-1.8	100
COc1ccccc1N1CCN(c2ccc(Cl)nn2)CC1	i	0.92	7	78	0	nt	105
Clc1ccc(Oc2nc(N3CCOCC3)nc(N3CCOCC3)n2)cc1	i	1	nt	nt	1	-0.6	102
COc1ccc(CSc2ncn[nH]2)cc1[N+](=O)[O-]	i	0.94	nt	nt	-4	-1.2	113
COc1ccc(C(=O)N(C)c2c(C)n(C)n(-c3ccccc3)c2=O)cc1OC	i	0.81	0	67	7	nt	111
NC(=S)Nc1ccc2c(c1)OCO2	i	1.1	nt	nt	-9	nt	100
Cc1cc(NS(=O)(=O)c2ccc(NC(=O)c3cnc4scc(C)n4c3=O)cc2)nc(C)n1	i	0.94	40	209	-12	-2.3	96
CCCCCCOC(=O)c1ccccc1NC(=O)/C=C/C(=O)O	i	1	6	123	-7	-2.0	92
Oc1ccc2[nH]cnc2c1CN1CCCCC1	i	1.1	5	62	-7	-1.5	104
CN1CCN(/N=C/c2c3ccccc3c(Cl)c3ccccc23)CC1	i	1.2	-28	55	-2	nt	107
O=C(CSc1nn(-c2ccccc2)c(=S)s1)NC1CCS(=O)(=O)C1 (configuration not stated)	i	0.99	0	51	-9	-1.3	111
COc1ccc2cc(C(c3nnnn3Cc3ccccc3)N3CCCCCC3)c(=O)[nH]c2c1 (configuration not stated)	i	1	0	153	-5	0.4	nt
Cc1ccn2cc(-c3nonc3C)cc2c1	i	0.95	nt	nt	0	-2.3	99
CC(Sc1nc2ccccc2s1)C(=O)Nc1nnc(C(C)C)s1 (configuration not stated)	i	0.79	nt	nt	-5	-1.6	100
CCN(C(=O)COC(=O)c1c(-c2ccccc2)noc1C)C1CCS(=O)(=O)C1 (configuration not stated)	i	0.98	-45	89	0	-1.1	99
O=C(O)c1cc([N+](=O)[O-])ccc1Nc1ccccc1	i	0.9	nt	nt	7	-0.6	57
CCOc1ccccc1/C=N/NC(=O)CNC(=O)c1cccs1	i	0.99	nt	nt	-3	nt	107
CC(=O)N1CCN(Cc2nc3scc(-c4ccccc4)c3c(=O)[nH]2)CC1	i	1	25	83	-6	nt	102
Cc1ccc2cc(C(c3nnnn3C3CCCC3)N3CCN(c4ccc(F)cc4)CC3)c(=O)[nH]c2c1 (configuration not stated)	i	0.75	6	75	-3	-0.6	100
O=C(O)CC1C(=O)NCCN1CCCc1ccccc1 (configuration not stated)	i	1	nt	nt	-6	-1.1	112
COc1ccccc1-n1c(SCC(=O)NC(C)(C)C)nnc1-c1ccco1	i	1	36	74	-2	-1.1	104
Cc1ccccc1OCC(=O)N/N=C/c1ccc([N+](=O)[O-])o1	i	0.83	nt	nt	-1	-0.4	94
O=C1CCC([N+](=O)[O-])C(c2ccc3c(c2)OCO3)N1 (configuration not stated)	i	1.1	nt	nt	-6	nt	107
CCO[C@H]1OC(C(=O)Nc2ccccc2)=C[C@@H](c2ccc(C(F)(F)F)cc2)[C@@H]1CCCO	i	0.9	nt	nt	1	nt	98
Cc1cc(Br)ccc1OCC(=O)NNC(=O)C(=O)Nc1ccccc1	i	1	nt	nt	-7	nt	104
Cc1nc2nc[nH]c2cc1Br	i	0.88	21	136	-2	-3.2	99
Cc1ccc(NS(=O)(=O)c2ccc(OCC(=O)Nc3cccc([N+](=O)[O-])c3)c(C)c2)cc1	i	0.93	4	132	-2	0.1	101
COc1cccc(NC(=S)N2CCN(c3ccccn3)CC2)c1	i	0.98	-11	114	-6	-0.2	98
O=C(NCc1ccccc1)c1ccc2nccnc2c1	i	0.83	-23	154	-2	0.1	102
Cn1cccc1CC(=O)N/N=C/C(Cl)=C/c1ccccc1	i	0.94	nt	nt	-19	1.0	71
CC1(C)CC(=O)C2=C(C1)OC(N)=C(C#N)C2c1ccc(OC(=O)N2CCOCC2)cc1 (configuration not stated)	i	0.67	nt	nt	-2	-3.0	99
New compounds follow.
SMILES	HSV replic up	HSV replic up primary fold	INS promoter inh	INS promoter inh cell count	PKD1 kinase inh	GALR2 ag	RGS16-Gao HTS
S=C(NCc1ccccn1)Nc1ccccc1	i	1	-54	114	0	-1.4	105
Cc1cc(C=O)c(C)n1-c1ccc(Oc2ccc([N+](=O)[O-])cn2)cc1	i	1	7	46	5	-1.4	141
Cc1ccc(C)c(N2C(=N)S/C(=C\c3ccc(-c4ccccc4C(=O)O)o3)C2=O)c1	i	1.2	nt	nt	-2	nt	100
FC(F)(F)c1cnc(C(c2ccccc2)c2ncn[nH]2)c(Cl)c1 (configuration not stated)	i	1.1	-45	130	-3	nt	100
COC(=O)/C(C#N)=C/c1ccc(C)o1	i	1	nt	nt	-8	nt	85
CCN(CC)S(=O)(=O)c1ccc(C(=O)NCc2ccc(C)cc2)cc1	i	0.93	-53	129	6	-1.1	104
O=C1CC(c2ccc(Cl)cc2)n2nc(N3C(=O)CCC3=O)nc2N1 (configuration not stated)	i	0.94	nt	nt	1	-0.6	105
O=C(NCc1ccco1)c1cc(NS(=O)(=O)c2cccc([N+](=O)[O-])c2)ccc1O	i	1.2	-11	88	-6	nt	99
CSCC[C@H](NC(=O)NCc1cccs1)C(=O)O	i	0.82	-7	89	-8	-0.4	101
O=C(Nc1nc2ccc(S(=O)(=O)N3CCCC3)cc2s1)c1ccco1	i	0.95	34	157	-4	1.5	112
Cc1cccc(Nc2nc(N)c([N+](=O)[O-])c(N3CCN(C)CC3)n2)c1	i	1.1	nt	nt	16	-2.2	120
O=C(Nc1ccc2c(c1)OCCO2)c1cc(-n2cnnc2)ccc1Cl	i	0.88	-40	125	-5	-0.8	98
CN(C)CCCNC(=O)c1cc(Br)ccc1O	i	0.98	nt	nt	nt	nt	100
COCCCNCC(O)C(F)(F)F (configuration not stated)	i	1.1	nt	nt	2	nt	99
O=C(NCc1csc2ccccc12)Nc1cc(Cl)cc(Cl)c1	i	0.91	nt	nt	nt	nt	105
COc1ccc(C)cc1S(=O)(=O)Nc1cc(Cl)ccc1Cl	i	0.96	-32	115	0	-3.4	106
Cc1cccc(NC(=O)c2cc([N+](=O)[O-])ccc2NCC2CCCO2)n1 (configuration not stated)	i	0.82	nt	nt	-6	nt	100
Cc1ccc(-n2ncc3c(=O)n(CC(=O)NC4CCCCC4)cnc32)cc1	i	1	13	96	9	0.2	97
CCC1CCCCN1CCNC(=O)CNS(=O)(=O)c1ccc2nc(C)sc2c1 (configuration not stated)	i	1	-29	164	3	0.1	96
COc1ccc(CN(C)Cc2nc3scc(-c4ccccc4)c3c(=O)[nH]2)cc1OC	i	0.94	-27	95	-4	1.0	107
O=C(NCc1ccccn1)/C(=N/O)c1ccccc1	i	0.99	-50	68	0	-1.7	99
CC(=O)Nc1cccc(NC(=S)Nc2cccc(Cl)c2C)c1	i	0.99	nt	nt	0	nt	163
CCN(CC)CCN1C(=O)C(=O)/C(=C(/O)c2c(C)[nH]c(C(=O)OC)c2C)C1c1ccccc1 (configuration not stated)	i	0.88	38	66	2	-0.4	102
c1ccc(-n2nnnc2Oc2ccc(-n3ccnc3)cc2)cc1	i	0.97	nt	nt	-12	-1.1	102
COc1cccc([C@@H]2Oc3ccc(Br)cc3C(=O)[C@H]2OC(=O)NC2CCCC2)c1	i	0.98	24	98	-7	-0.3	107

Among those listed so far, 4 contain bromine:
SMILES	HSV replic up	HSV replic up primary fold	INS promoter inh	INS promoter inh cell count	PKD1 kinase inh	GALR2 ag	RGS16-Gao HTS
Cc1cc(Br)ccc1OCC(=O)NNC(=O)C(=O)Nc1ccccc1	i	1	nt	nt	-7	nt	104
Cc1nc2nc[nH]c2cc1Br	i	0.88	21	136	-2	-3.2	99
CN(C)CCCNC(=O)c1cc(Br)ccc1O	i	0.98	nt	nt	nt	nt	100
COc1cccc([C@@H]2Oc3ccc(Br)cc3C(=O)[C@H]2OC(=O)NC2CCCC2)c1	i	0.98	24	98	-7	-0.3	107

Entries of single compounds as entered above:
Entry for `O=C(NCc1ccco1)c1cc(NS(=O)(=O)c2cccc([N+](=O)[O-])c2)ccc1O` = HSV replic up = i; HSV replic up primary fold = 1.2; INS promoter inh = -11; INS promoter inh cell count = 88; PKD1 kinase inh = -6; GALR2 ag = nt; RGS16-Gao HTS = 99
Entry for `CCN(CC)CCN1C(=O)C(=O)/C(=C(/O)c2c(C)[nH]c(C(=O)OC)c2C)C1c1ccccc1` (configuration not stated) = HSV replic up = i; HSV replic up primary fold = 0.88; INS promoter inh = 38; INS promoter inh cell count = 66; PKD1 kinase inh = 2; GALR2 ag = -0.4; RGS16-Gao HTS = 102
